Screening data deposited in PubChem BioAssay by Broad Institute.
FGF22 binding: shifts melting point of recombinant human FGF22 | recombinant FGF22 thermal shift, SYPRO orange fluorescence; percent of sucrose octasulfate shift, DMSO zero | actives 1.5% (n = 340,000) | AID 651658 | calls only at 9.99 µM;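 active means melting point raised past a set limit in the mean and every replicate; three in four hits are not shown here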
Target sequence (Q9HCT0 whole entry, looked up): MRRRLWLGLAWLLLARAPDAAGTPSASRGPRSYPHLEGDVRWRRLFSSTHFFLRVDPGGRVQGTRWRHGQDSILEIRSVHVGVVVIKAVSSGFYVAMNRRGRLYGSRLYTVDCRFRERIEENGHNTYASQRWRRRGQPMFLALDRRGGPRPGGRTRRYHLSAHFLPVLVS
Calls only; i = inactive. These rows are one share of the data (hit frequency here may not be typical).

Cc1noc(C)c1NC(=O)N(C)C[C@@H]1OCCCC[C@@H](C)Oc2ccc(NC(=O)Nc3ccccc3)cc2C(=O)N([C@H](C)CO)C[C@H]1C
  FGF22 binding: i
C[C@@H]1CN([C@H](C)CO)C(=O)c2cc(NS(=O)(=O)c3cccs3)ccc2O[C@H]1CN(C)Cc1ccncc1
  FGF22 binding: i
C[C@H]1CN([C@@H](C)CO)C(=O)c2cccc(NC(=O)c3nc4ccccc4s3)c2O[C@H]1CN(C)CC1CC1
  FGF22 binding: i
CC(C)CC#Cc1cnc2c(c1)C(=O)N([C@@H](C)CO)C[C@H](C)[C@H](CN(C)C(=O)Cc1ccncc1)O2
  FGF22 binding: i
COCC#Cc1ccc2c(c1)O[C@H](CN(C)Cc1ccccc1F)[C@@H](C)CN([C@H](C)CO)S2(=O)=O
  FGF22 binding: i
C[C@@H]1CN([C@@H](C)CO)C(=O)c2cccc(NC(=O)c3cnccn3)c2O[C@H]1CN(C)S(=O)(=O)c1cccs1
  FGF22 binding: i
O=C(c1cnccn1)N1CC(=O)N2[C@H](CO)[C@H](c3ccc(/C=C/c4ccccc4)cc3)[C@@H]2C1
  FGF22 binding: i
COc1ccc(C(=O)Nc2ccc3c(c2)OC[C@@H](C)NC[C@H](C)[C@@H](OC)CN(C)C3=O)cc1
  FGF22 binding: i
Cc1ccccc1S(=O)(=O)N1CC[C@@H]2[C@H](CO)Nc3ccc(-c4ccccc4F)cc3[C@@H]21
  FGF22 binding: i
C[C@@H]1CCCCO[C@@H](CN(C)S(=O)(=O)c2ccc(Cl)cc2)[C@@H](C)CN([C@@H](C)CO)C(=O)c2cc(NC(=O)Nc3ccc4c(c3)OCO4)ccc2O1
  FGF22 binding: i

COc1ccc(NC(=O)Nc2ccc3c(c2)C(=O)N([C@@H](C)CO)C[C@@H](C)[C@H](CN(C)S(=O)(=O)c2ccc(F)cc2)O3)cc1
  FGF22 binding: i
C[C@@H]1CN([C@@H](C)CO)C(=O)c2cc(NC(=O)Nc3cccc4ccccc34)ccc2O[C@@H]1CN(C)Cc1ccc(C(=O)Nc2ccccc2N)cc1
  FGF22 binding: i
C[C@H]1CN([C@@H](C)CO)C(=O)c2cccc(NS(=O)(=O)c3cn(C)cn3)c2O[C@@H]1CN(C)Cc1ccc(Cl)c(Cl)c1
  FGF22 binding: i
CCC(=O)Nc1ccc2c(c1)OC[C@@H](C)N(C(=O)CN(C)C)C[C@@H](C)[C@H](OC)CN(C)C2=O
  FGF22 binding: i
CC(C)NC(=O)N1CCCCN2[C@H](CO)[C@H](c3ccc(C#C[C@@H](C)O)cc3)[C@H]2C1
  FGF22 binding: i
C[C@H](CO)N1C[C@H](C)[C@@H](CN(C)S(C)(=O)=O)Oc2c(NC(=O)c3cnccn3)cccc2C1=O
  FGF22 binding: i
O=C(Nc1ccc(F)cc1)N1CCCCN2[C@@H](CO)[C@@H](c3ccc(C#Cc4ccccc4)cc3)[C@@H]2C1
  FGF22 binding: i
O=C(C[C@H]1CC[C@H]2[C@@H](COC[C@@H](O)CN2C(=O)c2cc(Cl)cc(Cl)c2)O1)N1CCc2ccccc2C1
  FGF22 binding: i
C[C@H]1CN([C@@H](C)CO)C(=O)c2cccc(NS(=O)(=O)c3cccs3)c2O[C@@H]1CN(C)Cc1ccc(Cl)c(Cl)c1
  FGF22 binding: i
Cc1ccc(S(=O)(=O)N[C@@H]2C=C[C@@H](CC(=O)N3CCC(Cc4ccccc4)CC3)O[C@@H]2CO)cc1
  FGF22 binding: i

COc1ccc(S(=O)(=O)Nc2ccc3c(c2)C(=O)N([C@H](C)CO)C[C@H](C)[C@@H](CN(C)Cc2ccc(C(F)(F)F)cc2)O3)cc1
  FGF22 binding: i
C[C@H](CO)N1C[C@H](C)[C@H](CN(C)Cc2ccncc2)OCCCC[C@H](C)Oc2ccc(NC(=O)CCCN(C)C)cc2C1=O
  FGF22 binding: i
COc1cccc(NC(=O)N[C@@H]2CC[C@@H](CC(=O)N3CCCCC3)O[C@@H]2CO)c1
  FGF22 binding: i
CN(C)C(=O)c1cccc(-c2ccc(C3[C@@H]4CN(S(=O)(=O)c5cccc(Cl)c5)C[C@H]3N4)cc2)c1 (stereo partly drawn)
  FGF22 binding: i
O=C(NCC(F)(F)F)[C@H]1[C@H](CO)[C@H]2Cn3c(cccc3=O)[C@H]2N1C(=O)C1CC1
  FGF22 binding: i
COc1ccccc1C#Cc1ccc2c(c1)[C@H]1[C@H](CCN1S(=O)(=O)c1ccc(C)cc1)[C@@H](CO)N2
  FGF22 binding: i
C[C@H](CO)N1C[C@H](C)[C@@H](CN(C)C(=O)Cc2ccncc2)Oc2cc(C#Cc3ccccc3F)ccc2S1(=O)=O
  FGF22 binding: i
Cc1noc(C)c1NC(=O)N[C@@H]1CC[C@@H](CCNC(=O)C2CCC2)O[C@@H]1CO
  FGF22 binding: i
COc1cccc(NC(=O)Nc2ccc3c(c2)OC[C@H](C)NC[C@@H](C)[C@H](OC)CN(C)C3=O)c1
  FGF22 binding: i
C[C@@H]1CCCCO[C@H](CN(C)C(=O)Cc2ccccc2)[C@@H](C)CN([C@H](C)CO)C(=O)c2cc(NC(=O)c3ccncc3)ccc2O1
  FGF22 binding: i

CN1CCN(C(=O)C[C@@H]2CC[C@@H]3[C@@H](COc4ccc(NC(=O)c5cscn5)cc4C(=O)N3C)O2)CC1
  FGF22 binding: i
COc1ccc(NC(=O)N2C[C@H](O)COC[C@@H]3O[C@H](CC(=O)N4CCN(C)CC4)CC[C@H]32)cc1
  FGF22 binding: i
CCNC(=O)C[C@@H]1CC[C@@H]2[C@H](COc3ccc(NC(=O)c4ccc5c(c4)OCO5)cc3C(=O)N2C)O1
  FGF22 binding: i
C[C@H](CO)N1C[C@H](C)[C@H](CN(C)C(=O)NC2CCCCC2)Oc2ccc(NC(=O)Nc3cccc4ccccc34)cc2C1=O
  FGF22 binding: i
C[C@@H]1CN([C@H](C)CO)C(=O)c2cc(NC(=O)CCC(F)(F)F)ccc2O[C@@H]1CN(C)C(=O)Nc1ccc(C(F)(F)F)cc1
  FGF22 binding: i
Cc1ccc(S(=O)(=O)N(C)C[C@@H]2OCCCC[C@H](C)Oc3ccc(NC(=O)Nc4cccc5ccccc45)cc3C(=O)N([C@@H](C)CO)C[C@H]2C)cc1
  FGF22 binding: i
C[C@H](CO)N1C[C@H](C)[C@H](CN(C)C(=O)Nc2ccc(C(F)(F)F)cc2)Oc2ccc(NS(=O)(=O)c3ccc(F)cc3)cc2CC1=O
  FGF22 binding: i
CC(C)NC(=O)N1[C@@H](CO)[C@@H](c2ccccc2)C12CN(Cc1cc(F)cc(F)c1)C2
  FGF22 binding: i
O=C(c1cccc(F)c1)N1CCCCN2[C@H](CO)[C@H](c3ccc(-c4cncnc4)cc3)[C@H]2C1
  FGF22 binding: i
C[C@H]1CN([C@@H](C)CO)C(=O)c2cccc(NC(=O)C3CCOCC3)c2O[C@H]1CN(C)Cc1ccc(-c2ccccc2)cc1
  FGF22 binding: i

Cc1noc(C)c1NC(=O)N(C)C[C@H]1Oc2ncc(C#CC3CCCCC3)cc2C(=O)N([C@@H](C)CO)C[C@H]1C
  FGF22 binding: i
CO[C@H](CN(C)C(=O)Nc1ccc(F)cc1)[C@H](C)CN(Cc1ccccc1Cl)[C@H](C)CO
  FGF22 binding: i
O=C(Nc1ccc(F)cc1)N1C[C@@H]2[C@H](c3ccccc31)[C@@H](CO)N2C(=O)Cc1ccccn1
  FGF22 binding: i
CO[C@H]1CN(C)C(=O)c2cc(NC(=O)C3CC3)ccc2OC[C@H](C)N(CC2CC2)C[C@H]1C
  FGF22 binding: i
CO[C@H]1CN(C)C(=O)c2ccc(NC(=O)C3CCCC3)cc2OC[C@H](C)N(CC2CC2)C[C@H]1C
  FGF22 binding: i
COc1cccc(S(=O)(=O)N(C)C[C@@H]2Oc3ncc(-c4cc5ccccc5o4)cc3C(=O)N([C@H](C)CO)C[C@@H]2C)c1
  FGF22 binding: i
O=C(Cc1ccccn1)NCC[C@H]1CC[C@@H](NS(=O)(=O)c2ccc(Cl)cc2)[C@H](CO)O1
  FGF22 binding: i
Cc1ccc(S(=O)(=O)Nc2ccc3c(c2)CC(=O)N([C@H](C)CO)C[C@@H](C)[C@H](CN(C)C(=O)Nc2ccc4c(c2)OCO4)O3)cc1
  FGF22 binding: i
C[C@@H]1CN([C@H](C)CO)C(=O)c2cc(NS(C)(=O)=O)ccc2O[C@@H]1CN(C)Cc1ccncc1
  FGF22 binding: i
C[C@H](CO)N1C[C@H](C)[C@H](CN(C)CC2CCCCC2)OCCCC[C@H](C)Oc2ccc(NC(=O)CCCN(C)C)cc2C1=O
  FGF22 binding: i

An excerpt from above in order of heavy-atom count, high to low.
Cc1noc(C)c1NC(=O)N(C)C[C@@H]1OCCCC[C@@H](C)Oc2ccc(NC(=O)Nc3ccccc3)cc2C(=O)N([C@H](C)CO)C[C@H]1C
  FGF22 binding: i
C[C@@H]1CN([C@H](C)CO)C(=O)c2cc(NC(=O)CCC(F)(F)F)ccc2O[C@@H]1CN(C)C(=O)Nc1ccc(C(F)(F)F)cc1
  FGF22 binding: i
O=C(C[C@H]1CC[C@H]2[C@@H](COC[C@@H](O)CN2C(=O)c2cc(Cl)cc(Cl)c2)O1)N1CCc2ccccc2C1
  FGF22 binding: i
CC(C)NC(=O)N1CCCCN2[C@H](CO)[C@H](c3ccc(C#C[C@@H](C)O)cc3)[C@H]2C1
  FGF22 binding: i

Next section
CC(C)CC#Cc1cnc2c(c1)C(=O)N([C@H](C)CO)C[C@H](C)[C@H](CN(C)Cc1cccc(F)c1)O2
  FGF22 binding: i
CCNC(=O)C[C@H]1CC[C@@H]2[C@H](COC[C@@H](O)CN2C(=O)Nc2ccc(C(F)(F)F)cc2)O1
  FGF22 binding: i
C[C@H](CO)N1C[C@H](C)[C@H](CN(C)C(=O)Nc2ccc(C(F)(F)F)cc2)Oc2c(NC(=O)C3CC3)cccc2C1=O
  FGF22 binding: i
Cc1noc(C)c1S(=O)(=O)N(C)C[C@@H]1Oc2ccc(NS(=O)(=O)c3cccs3)cc2CC(=O)N([C@@H](C)CO)C[C@@H]1C
  FGF22 binding: i
O=C(C[C@@H]1C[C@@H]2c3cc(NC(=O)NC4CCCC4)ccc3O[C@@H]2[C@H](CO)O1)NCC1CC1
  FGF22 binding: i
O=S(=O)(N[C@H]1CC[C@@H](CCn2cc(-c3ccc(F)cc3)nn2)O[C@@H]1CO)c1ccccc1F
  FGF22 binding: i
O=C(NCC1CCCCC1)[C@@H]1[C@@H](CO)[C@@H]2Cn3c(ccc(C4=CCCC4)c3=O)[C@H]1N2C(=O)CC1CC1
  FGF22 binding: i
CCCc1cn(CC[C@H]2CC[C@@H](NC(=O)C3CC3)[C@@H](CO)O2)nn1
  FGF22 binding: i
C[C@@H]1CN([C@@H](C)CO)C(=O)Cc2cc(NC(=O)Nc3ccc(F)cc3)ccc2O[C@@H]1CN(C)S(=O)(=O)c1cccs1
  FGF22 binding: i
CC(C)NC(=O)N(C)C[C@@H]1Oc2c(NC(=O)Nc3ccc(C(F)(F)F)cc3)cccc2C(=O)N([C@@H](C)CO)C[C@@H]1C
  FGF22 binding: i

CCC(=O)N[C@H]1CC[C@@H](CC(=O)NCc2ccc(OC)cc2)O[C@H]1CO
  FGF22 binding: i
CC(C)CC#Cc1ccc2c(c1)O[C@@H](CN(C)C(=O)NC(C)C)[C@H](C)CN([C@@H](C)CO)S2(=O)=O
  FGF22 binding: i
C[C@@H]1CN([C@@H](C)CO)C(=O)c2cc(NC(=O)Nc3ccccc3)ccc2O[C@@H]1CN(C)S(=O)(=O)c1cn(C)cn1
  FGF22 binding: i
C[C@@H]1CCCCO[C@@H](CN(C)S(=O)(=O)c2cn(C)cn2)[C@@H](C)CN([C@@H](C)CO)C(=O)c2cc(NC(=O)Nc3ccc(C(F)(F)F)cc3)ccc2O1
  FGF22 binding: i
C[C@@H]1CN([C@@H](C)CO)C(=O)c2cc(C#CC(C)(C)O)cnc2O[C@H]1CN(C)C(=O)C1CC1
  FGF22 binding: i
C[C@H](CO)N1C[C@H](C)[C@H](CN(C)Cc2cccnc2)Oc2ncc(C#Cc3ccccn3)cc2C1=O
  FGF22 binding: i
CN(C)C(=O)C[C@H]1C[C@@H]2c3cc(NC(=O)C4CCC4)ccc3O[C@@H]2[C@H](CO)O1
  FGF22 binding: i
C[C@H](CO)N1C[C@H](C)[C@H](CN(C)Cc2ccncc2)Oc2ncc(C#CC3CCCC3)cc2C1=O
  FGF22 binding: i
Cc1ccc(S(=O)(=O)Nc2ccc3c(c2)C(=O)N([C@@H](C)CO)C[C@H](C)[C@@H](CN(C)C(=O)Nc2ccc(F)cc2)OCCCC[C@H](C)O3)cc1
  FGF22 binding: i
COC(=O)C1=C(C)N(C)C(=NCC2CC2)NC1c1cccc(Cl)c1 (stereo not drawn)
  FGF22 binding: i

CN(C)C(=O)C[C@@H]1CC[C@@H]2[C@H](COC[C@@H](O)CN2S(=O)(=O)c2ccccc2)O1
  FGF22 binding: i
C[C@@H]1CN([C@H](C)CO)C(=O)c2cc(NC(=O)Cc3cn(C)c4ccccc34)ccc2O[C@@H]1CN(C)C(=O)Nc1ccc(F)cc1
  FGF22 binding: i
COc1ccc(S(=O)(=O)Nc2ccc3c(c2)C(=O)N([C@@H](C)CO)C[C@@H](C)[C@H](CN(C)Cc2ccc(C(F)(F)F)cc2)O3)cc1
  FGF22 binding: i
Cc1noc(C)c1S(=O)(=O)Nc1ccc2c(c1)C(=O)N([C@@H](C)CO)C[C@H](C)[C@@H](CN(C)Cc1ccccc1)OCCCC[C@@H](C)O2
  FGF22 binding: i
COc1ccccc1/C=C/C=O
  FGF22 binding: i
CCCNC(=O)N1CC2(C1)[C@H](c1ccccc1)[C@@H](CO)N2Cc1ccc(Cl)cc1
  FGF22 binding: i
O=C(C1CC1)N1[C@@H](CO)[C@@H](c2ccccc2)C12CN(Cc1cncnc1)C2
  FGF22 binding: i
O=C(NCC(F)(F)F)[C@@H]1[C@@H](CO)[C@@H]2Cn3c(cccc3=O)[C@@H]2N1C(=O)c1ccccc1F
  FGF22 binding: i
C[C@@H]1CN([C@H](C)CO)C(=O)c2cc(NC(=O)CCCCCC(=O)Nc3ccccc3N)ccc2O[C@@H](C)CCCCO[C@@H]1CN(C)S(=O)(=O)c1ccc(Cl)cc1
  FGF22 binding: i
CCCN1[C@@H]2Cn3c(ccc(-c4ccncc4)c3=O)[C@H]1[C@@H](C(=O)N1CCCCC1)[C@@H]2CO
  FGF22 binding: i
C[C@H](CO)N1C[C@H](C)[C@@H](CN(C)Cc2ccc(Cl)c(Cl)c2)Oc2c(NC(=O)Nc3cccc4ccccc34)cccc2C1=O
  FGF22 binding: i
